Screening results from PubChem.
VACV mCherry inh: vaccinia inhibition (mCherry reporter); Vaccinia virus mCherry reporter infection, fluorescence; about a quarter of the inactives have no number; Potency, µM (highest dose often 36.5 µM), without a hit: top-dose activity change, negative = inhibition, actives largely listed as inhibitors; actives 0.63% (n = 310,000); active = well fitted inhibition curve with a large enough effect; inconclusive = small, poorly fitted or top-dose-only effect; inactive = no such curve, though single readings can be large or run the other way; tested in A549 cells; also: nearly all actives have a fitted effect of over 35% in size; inactives centre near -10
VACV Venus inh: inhibitors of vaccinia virus (Venus reporter); Vaccinia virus Venus reporter expression, fluorescence; Potency, µM (series often up to 36.5 µM), inactives show at the top dose activity change, negative = inhibition, actives largely listed as inhibitors; actives 0.46% (n = 330,000); AID 720580; active means well fitted inhibition curve with a large enough effect; inconclusive means small, poorly fitted or top-dose-only effect; inactive means no such curve, though single readings can be large or run the other way; tested in A549 cells; also: nearly all actives have a fitted effect of over 30% in size; inactives centre near -10
* hit, by the source's call; i = inactive; u = inconclusive; x = no result given; & = joins results of further samples; ! = not confirmed by another sample; [ ] = remark or other dose. % is scaled to controls: 0 for no effect and ±100 for the full control effect; potency is read from the fitted curve at half-maximal effect. The order is random; 0.87% or so of the library scored in one or more.

SMILES	VACV mCherry inh	VACV Venus inh
Cc1ccc(CNC(=O)Cn2c3ncccc3c(=O)n2-c2ccccc2)cc1	-16%	-9%
Cc1cc(F)ccc1S(=O)(=O)Nc1ccccc1C(=O)Nc1ccccc1N1CCOCC1	-22%	-21%
CCc1nc(N)nc(N)c1-c1ccc(Cl)cc1	8.9µM*!	u
Cc1nc2nc(C)c(CCC(=O)NC3CCCCC3)c(C)n2n1	i	-11%
COCCn1nnnc1C1(N(Cc2cc3cc(C)ccc3[nH]c2=O)CC2CCCO2)CCN(C)CC1 (stereo not drawn)	-15%	-12%
CC(=O)Nc1nc(-c2ccc(-c3ccccc3)cc2)cs1	-8%	-12%
C(=N\Nc1nc(N2CCOCC2)nc(N2CCOCC2)n1)/c1cccnc1	-10%	-5%
CC(=O)c1cccc(NC(=O)c2ccc(Cl)c(S(=O)(=O)N3CCOCC3)c2)c1	-8%	-9%
COc1ccc(NC(=O)c2cccc(N3C(=O)C4C5C=CC(C6CC56)C4C3=O)c2)cc1 (stereo not drawn)	-13%	-22%
O=c1[nH]c(C2CCN(S(=O)(=O)Cc3ccccc3)CC2)nc2c1nnn2Cc1ccccc1	i	-14%
NNc1nc2c(Cl)cccc2s1	-7%	-2%
O=C(Nc1ccccc1Cc1ccccc1)c1ccccc1F	-10%	0%
O=C(C1CCCN(S(=O)(=O)c2cccc3nsnc23)C1)N1CCN(c2ccccn2)CC1 (stereo not drawn)	i	-22%
C=CCN1C(=O)C2(NC(=O)c3ccccc3N2)c2ccccc21 (stereo not drawn)	-11%	-9%
Cc1cccc(NC(=O)c2cnccn2)c1	-11%	-2%
CCOC(=O)N1C(=O)c2cc(OC)ccc2S1(=O)=O	x	-1%
COc1cccc(COC(=O)c2ccc(-c3nnn(Cc4ccccc4)n3)cc2)c1	-7%	-7%
COc1cc(OC)cc(C(=O)N2CCCC(n3cc(C(=O)NCC(C)C)nn3)C2)c1 (stereo not drawn)	-10%	-4%
CCc1ccc(Sc2cc(C(=O)NCc3cccc(OC)c3)c3ccccc3n2)cc1	-7%	-12%
Nc1ncnc2nc(N3CCN(C(=O)c4ccccc4)CC3)[nH]c12	x	-16%
COc1ccc(/C=C(\C#N)C(=O)C(C)(C)n2cncn2)cc1	-1%	-10%
CN1CCN(/N=C/c2nc(-c3ccccc3)n3ccccc23)CC1	-16%	-10%
COc1ccc(Cl)cc1C(=O)Nc1nc2ccccc2[nH]1	i	-20%
CCc1ccc(C2CC(c3ccccc3)Nc3nc(N)nn32)cc1 (stereo not drawn)	-5%	0%
COc1ccc(C(=O)NCCn2cc(SCC(N)=O)c3ccccc32)cc1	i[7.34 µM]	0%[7.34 µM]

Compounds from the list above with a halogen:
SMILES	VACV mCherry inh	VACV Venus inh
Cc1cc(F)ccc1S(=O)(=O)Nc1ccccc1C(=O)Nc1ccccc1N1CCOCC1	-22%	-21%
CCc1nc(N)nc(N)c1-c1ccc(Cl)cc1	8.9µM*!	u
CC(=O)c1cccc(NC(=O)c2ccc(Cl)c(S(=O)(=O)N3CCOCC3)c2)c1	-8%	-9%
NNc1nc2c(Cl)cccc2s1	-7%	-2%
O=C(Nc1ccccc1Cc1ccccc1)c1ccccc1F	-10%	0%
COc1ccc(Cl)cc1C(=O)Nc1nc2ccccc2[nH]1	i	-20%

By substructure, the compounds so far with an NH in an aromatic ring
SMILES	VACV mCherry inh	VACV Venus inh
COCCn1nnnc1C1(N(Cc2cc3cc(C)ccc3[nH]c2=O)CC2CCCO2)CCN(C)CC1 (stereo not drawn)	-15%	-12%
O=c1[nH]c(C2CCN(S(=O)(=O)Cc3ccccc3)CC2)nc2c1nnn2Cc1ccccc1	i	-14%
Nc1ncnc2nc(N3CCN(C(=O)c4ccccc4)CC3)[nH]c12	x	-16%
COc1ccc(Cl)cc1C(=O)Nc1nc2ccccc2[nH]1	i	-20%

(next part)
SMILES	VACV mCherry inh	VACV Venus inh
COc1ccc(NC(=O)c2ccc(NC(=O)CCS(=O)(=O)c3cccs3)cc2)cc1	-16%&-22%	-17%&-7%
Cc1cccc(N2CN(Cc3ccco3)CNC2=S)c1	-16%	-1%
O=c1cc(N2CCCCCC2)[nH]c(=O)n1-c1ccccc1Cl	i	-10%
COc1cccc(C2NC(=S)NC(C)=C2C(=O)c2ccccc2)c1OC (stereo not drawn)	-10%	-9%
CCc1cccc(C)c1NC(=O)CN(C)S(=O)(=O)c1cccc2nsnc12	-12%	-13%
COc1ccc(C)cc1NC(=O)c1cc(S(=O)(=O)N2CCOCC2)cn1C	-9%&-9%	-9%&-7%
Cc1cc(C)nc(Nc2nc(C(N)c3ccccc3)cs2)n1 (stereo not drawn)	-25%	-28%
CSc1ccccc1NC(=O)Nc1ccccc1	-9%	-13%
Cc1ccc(NC(=O)CNc2ccc(Cl)c(Cl)c2)cc1S(=O)(=O)N(C)C	u	u
Cc1cc([N+](=O)[O-])nn1CC(=O)NCCc1c[nH]c2ccccc12	-19%	-18%
COc1ccc(NC(=O)c2sc3nc(-c4ccc(OC)cc4)cc(C(F)(F)F)c3c2N)cc1	-28%[7.34 µM]	-2%[7.34 µM]
O=C(Nc1cccc(-c2nc3ncccc3o2)c1)c1ccc(-c2cccc(Cl)c2Cl)o1	u	-28%
CCN1CCc2c(sc(-n3cccc3)c2C(CCC(C)C)NC(=O)NCCC(=O)OC)C1 (stereo not drawn)	-13%	-9%
Cc1oc(-c2ccc(F)cc2)nc1CN1CCCC(C(=O)N2CCOCC2)C1 (stereo not drawn)	i	-9%
O=[N+]([O-])c1ccc2nc(CCCc3nc4ccc([N+](=O)[O-])cc4[nH]3)[nH]c2c1	i	-8%
COc1ccc(-c2nnc(SC(C)C(=O)Nc3nccs3)n2-c2ccccc2)cc1OC (stereo not drawn)	-7%	-14%
O=C(COc1ccc(C(=O)c2ccccc2)cc1)NC1CCCCC1	i	-7%
COc1ccc(NC(=O)C2CCCN(S(=O)(=O)c3cccs3)C2)cc1 (stereo not drawn)	-4%	3%
Cn1c(=O)c2c(SCC(=O)Nc3ccc(F)cc3F)nc(C3CCCC3)nc2n(C)c1=O	-26%	u
CN(C)Cc1csc(Nc2ccc(C(F)(F)F)cn2)n1	-4%	0%
CCOc1ccc(N(C)C(=O)c2oc(=O)c3ccccc3c2-c2ccccc2)cc1	-21%	-14%
COc1cccc(N=CC2=C(O)CC(C)(C)CC2=O)c1	-23%	-28%
CCOc1ccc(NC(=O)Nc2nc(SCC)ns2)cc1	-29%	-25%
COc1ccc(OC)c(Cc2nnc(CCC(=O)NCc3nc4ccccc4s3)o2)c1	-17%	-10%
O=C(NCCN1C(=O)S/C(=C\c2cccnc2)C1=O)c1ccc(S(=O)(=O)N2CCCC2)cc1	i	-7%

5 records picked at random from the list so far, as already listed:
SMILES	VACV mCherry inh	VACV Venus inh
O=C(C1CCCN(S(=O)(=O)c2cccc3nsnc23)C1)N1CCN(c2ccccn2)CC1 (stereo not drawn)	i	-22%
CN1CCN(/N=C/c2nc(-c3ccccc3)n3ccccc23)CC1	-16%	-10%
COc1ccc(NC(=O)c2sc3nc(-c4ccc(OC)cc4)cc(C(F)(F)F)c3c2N)cc1	-28%[7.34 µM]	-2%[7.34 µM]
Cc1nc2nc(C)c(CCC(=O)NC3CCCCC3)c(C)n2n1	i	-11%
COc1cccc(N=CC2=C(O)CC(C)(C)CC2=O)c1	-23%	-28%

Later entries
SMILES	VACV mCherry inh	VACV Venus inh
Cc1ccc2nc(C)c3c(c2c1)N(c1ccc(F)cc1)CC3	u	-10%
O=C(NCc1ccc(Cl)cc1)c1cc2cccc3c2n1CCS3	2%	6%
CCc1noc(C)c1C(=O)N1CCN(S(=O)(=O)c2ccc(Cl)s2)CC1	-4%	2%
COCCNC(=O)COc1ccc(C)cc1C(=O)c1cc(C#N)c(=O)n(C2CC2)c1	-1%	-3%
COc1cccc(NS(=O)(=O)c2cc(C)ccc2OC)c1	-17%	-9%
CCC1Cc2c(nc(N)c3c(N)nc(N4CCOCC4)c(C#N)c23)O1 (stereo not drawn)	u	u
COc1ccc(CCNC(=O)c2ccc3[nH]c(C)c(C)c3c2)cc1OC	-12%	-5%
CC(C)(C)c1ccc(OCC(=O)NN2Cc3ccccc3C2=N)cc1	i	-9%
CN(C(=O)COC(=O)c1cc(S(=O)(=O)N2CCOCC2)ccc1F)C1CCS(=O)(=O)C1 (stereo not drawn)	i	-4%
CC(=O)Oc1cc2oc(=O)cc(C)c2cc1Cl	-17%	1%
CN(C(=O)c1cccc(NC(=O)Cc2ccc(NC(=O)C3CCN(S(=O)(=O)c4cccc([N+](=O)[O-])c4)CC3)cc2)c1)C1CCCCC1	-15%	-16%
COC(=O)C1CC2=C(CCC2=O)N(c2ccccc2)C1=O (stereo not drawn)	3%	6%
Cc1ccc2c(C(=O)CN3CCC4(CC3)OCCO4)c(C)[nH]c2c1	-12%	4%
Cc1cc[n+](-c2[nH]c(=O)sc2/C=N/N=C(\[O-])c2ccccc2)cc1	i	-12%
O=C(COC(=O)Cc1cccs1)Nc1ccccc1Cl	-7%	-8%
Cc1ccccc1NC(=O)c1nnn(-c2ccc3c(c2)OCCO3)c1N	32%[activator]	-2%
CCOC(=O)/C(=N\Nc1ccccc1)N1CC1	9%	1%
COC(=O)c1nn(-c2ccccc2)c(-c2ccccc2)c1C(=O)c1ccccc1	x	-23%
Cc1ccc(CN2C3=NCCCN3c3ccccc32)cc1	-5%	-21%
O=C(CCn1c(=O)c2sccc2n(Cc2cccc(F)c2)c1=O)NCc1ccc2c(c1)OCO2	-22%	-19%
COc1ccc(Nc2ccncc2[N+](=O)[O-])cc1	-25%	-12%
COc1ccc(NC(=O)C2(C)CCN2Cc2ccc(OC(C)C)cc2)cc1OC (stereo not drawn)	-1%	2%
O=C(CSc1nc2ccccc2nc1Cc1ccc(Cl)cc1)Nc1ccc2c(c1)OCO2	-10%	0%
CN1c2ccc(Cl)cc2-c2nc(SCC(=O)NCc3ccc(F)cc3)ncc2S1(=O)=O	i	0%
CCCN[C@H]1CCc2nc(N)sc2C1	-21%	-9%

Additional records
SMILES	VACV mCherry inh	VACV Venus inh
Fc1ccc(CNCc2ccccc2C(F)(F)F)cc1	-19%	-14%
Cc1ccc(OCCn2cc(C=O)c3ccccc32)cc1	-16%	-12%
COC(=O)c1c(NC(=O)COC(=O)C2CCC2)sc(C)c1C	-8%	-8%
CCC(=O)Nc1ccccc1C(=O)N1CCCC1	-8%	11%
Cc1ccc(SCC(=O)c2c(C)[nH]c3ccccc23)cc1	-19%	-5%
CC(c1ccco1)N(C(=O)c1ccccc1F)c1ccccn1 (stereo not drawn)	0%	-12%
COc1ccc(NC(=O)c2cc(-c3ccc(F)cc3OC(C)C)n[nH]2)cn1	-10%	u
NNC(=O)C1CCCn2c1nc1sc3c(c1c2=O)CCCC3 (stereo not drawn)	-18%	-3%
COc1ccccc1NC(=O)c1c(NC(=O)c2ccco2)sc2c1CCC2	-15%	-10%
O=C(NCc1ccccc1)c1cc(C2CCCCN2C(=O)OCCF)on1 (stereo not drawn)	5%	-6%
CN(C)C1CN(Cc2cn(Cc3ccc(C(F)(F)F)cc3)nn2)S(=O)(=O)C1 (stereo not drawn)	i	-4%
COc1cc(Br)c(CC(=O)NO)cc1OC	-24%	-13%
CC(C)c1nc(N2CCOCC2)c(C#N)c2c1COC(C)(C)C2	i	-8%
CC(CNC(=O)COC(=O)c1cccs1)c1ccccc1 (stereo not drawn)	-12%	-2%
COc1ccc(C2C(C(=O)Nc3ccccc3)=C(C)Nc3nc(-c4ccc(Cl)cc4)nn32)cc1 (stereo not drawn)	-27%	-15%
CC(=O)Nc1ccc(/C(C)=N/NS(=O)(=O)c2ccc(C)cc2)cc1	-10%	-8%
Cc1ccccc1NC(=O)Cn1cc(C(=O)c2ccco2)c2ccccc21	-18%	-8%
Nc1[nH]c(C(=O)c2ccccc2)c(-c2ccncc2)c1C(=O)NCc1ccc(Cl)cc1	-10%	-7%
Cc1cc(C)cc(C(=O)Nn2cnnc2)c1	-7%	0%
CC(=O)Nc1ccc(Cl)cc1C(=O)O	x	-7%
Cc1ccc(OCCn2c3ccccc3n3nc(C)c(=O)nc23)cc1	i	-4%
CCOC(=O)N1CCN(C(=O)c2ccc(NC(C)=O)cc2)CC1	-7%	-9%
CSc1ccc(/C=C/C(=O)c2ccc(NC(C)=O)cc2)cc1	x	-9%
CC(C)(C(=O)N1CCC1(C)C(=O)NS(=O)(=O)c1cccc(F)c1)c1ccccc1 (stereo not drawn)	13%	-4%
Cc1cc(N/N=C/c2c[nH]c3ccccc23)c2ccccc2n1	-4%	-4%

The list continues.
SMILES	VACV mCherry inh	VACV Venus inh
O=C(CN1CCN(C(=S)NC2CCCC2)CC1)Nc1ccc(Oc2ccccc2)cc1	u	u
CCc1ccc(C2CC(=O)N(c3cccc(F)c3)C3=C2C(=O)OC3)cc1 (stereo not drawn)	i	-2%
COc1ccccc1NS(=O)(=O)c1ccc2c(c1)OCCO2	-18%	-15%
Cc1cc(SCC(=O)OCC(=O)N(CCC#N)c2ccccc2)nc2ccccc12	-18%	-1%
CC(OC(=O)CNC(=O)C12CC3CC(CC(C3)C1)C2)C(=O)Nc1ccc(N2CCOCC2)cc1 (stereo not drawn)	4%[1.46 µM]	-10%
N#Cc1ccccc1CSC1=NCCS1	-6%	-7%
Cc1ccc(NC(=O)N2CCC(c3nc4c(nnn4Cc4c(F)cccc4Cl)c(=O)[nH]3)CC2)cc1	u	-21%
Cc1ccc(N(CC(=O)NCCc2ccc(Cl)cc2)S(=O)(=O)c2c(C)noc2C)cc1	-11%&-11%	-27%&-3%
Cc1cc(C)c2c(CC(=O)Nc3nnc(CC(C)C)s3)coc2c1	6%	8%
